# Screening results from PubChem BioAssay.
# YopH inh: blocks Yersinia enterocolitica YopH tyrosine phosphatase | 140,000 compounds, 0.16% hits | inhibition, %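 (about 10 µM by stock and volumes)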 | fluorescence Ex485/Em525;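 active means inhibition of 50% or more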;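 further: controls were vehicle for no effect and minimum signal wells for full effect; inactives centre near -20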
# Arbovirus anti: antivirals against arbovirus infection. arbovirus infection cell-based antiviral screen. inhibition, % at 10 µM. 200,000 compounds, 0.37% hits. AID 1251;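 active means inhibition from about 30%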;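 further: bluetongue infection of BSR cells; cell survival read as ATP light after 72 h; 0% = infected wells without compound and 100% = uninfected wells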
# RecA splice inh: blocks M. tuberculosis RecA intein splicing. P9WHJ3. cell-free RecA intein splicing, fluorescence. inhibition, %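 (about 9 µM by stock and volumes)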. 290,000 compounds, 0.75% hits. AID 2221; in the data active means inhibition above about 30%; inconclusive means no clear call, values can overlap the other calls;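 further: 0% = vehicle wells and 100% = reference inhibitor control wells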
# Target sequence (P9WHJ3 whole entry, looked up, canonical isoform): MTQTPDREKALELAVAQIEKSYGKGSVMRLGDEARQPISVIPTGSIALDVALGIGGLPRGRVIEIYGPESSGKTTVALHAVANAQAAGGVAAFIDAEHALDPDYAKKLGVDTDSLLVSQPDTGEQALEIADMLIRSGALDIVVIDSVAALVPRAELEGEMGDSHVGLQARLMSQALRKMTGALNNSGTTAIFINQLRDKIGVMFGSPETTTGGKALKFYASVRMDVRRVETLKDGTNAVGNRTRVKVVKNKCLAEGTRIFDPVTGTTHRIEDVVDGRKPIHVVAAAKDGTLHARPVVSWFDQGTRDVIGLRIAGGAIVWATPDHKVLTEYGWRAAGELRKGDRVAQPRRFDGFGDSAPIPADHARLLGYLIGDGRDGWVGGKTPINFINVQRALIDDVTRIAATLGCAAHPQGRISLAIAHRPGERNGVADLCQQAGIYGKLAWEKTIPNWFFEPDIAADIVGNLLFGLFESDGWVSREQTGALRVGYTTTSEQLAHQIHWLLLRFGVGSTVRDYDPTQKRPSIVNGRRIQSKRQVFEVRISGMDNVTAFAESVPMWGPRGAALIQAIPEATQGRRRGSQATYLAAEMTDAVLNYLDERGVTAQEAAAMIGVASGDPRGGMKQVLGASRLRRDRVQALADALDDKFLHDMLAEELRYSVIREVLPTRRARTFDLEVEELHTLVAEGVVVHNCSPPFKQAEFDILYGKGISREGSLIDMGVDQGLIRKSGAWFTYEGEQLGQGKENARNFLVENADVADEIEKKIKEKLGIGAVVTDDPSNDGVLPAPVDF
# Mtb growth: M. tuberculosis H37Rv growth inhibitors, H37Rv strain (AID 1626) | M. tuberculosis H37Rv growth inhibition; higher % means a stronger effect | 220,000 compounds, 0.95% hits | inhibition, % at 10 µM, or IC50 in µM where a hit was titrated;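 active means confirmed in a dose series; inconclusive means inhibition above 80% but not taken into the dose series; inactive means below 80% or under 30% at every dose of the series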;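 further: bacteria incubated seven days before Alamar blue readout; 0% = bacteria only wells and 100% = bacteria with antibiotic wells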
# Mtb bLac sens: beta-lactam sensitization of Mtb H37Rv; inhibition, % at 25 µM; M. tuberculosis H37Rv growth with meropenem, percent inhibition; hits of this screen are not shown here; 330,000 compounds, 0.27% hits;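 active means about 74% or more and at least 40 points above the plate without the antibiotic, then above 30% in a dose series; inconclusive means first-round hits that could not be retested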;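 further: growth measured after seven days incubation then overnight dye step; 0% = bacteria only wells and 100% = bacteria with antibiotic; twin plates without the antibiotic show which effects depend on it; some results filed as inactive read as strong as hits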
# Arbovirus anti repeat: recorded beside Arbovirus anti, whose call it bears; inhibition, %; measured here: 10K subset replicate screen; many hits read low in the repeat;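 first of two repeat runs on a subset; 0% = infected and 100% = uninfected wells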
# Active calls of the source: *; ? = inconclusive; · = no result given. This is a subset, so the mix of outcomes need not match the whole.
SMILES,YopH inh,Arbovirus anti,RecA splice inh,Mtb growth,Mtb bLac sens,others
COc1ccc(C2CC(=O)c3cc(OC)c(OC)cc32)cc1OC (stereo not given),·,·,2.5,0%,-4,
O=C(Nc1nc2c(F)cccc2s1)c1ccc([N+](=O)[O-])o1,·,·,-3.7,·,60,
COc1cc(NC(=O)CN2C3CCC2CC(O)(c2cccnc2)C3)cc(OC)c1 (stereo not given),-21,-2,-0.8,7%,-3,
N#CCCN(C(=O)CSc1nc2nc(-c3cccs3)cc(C(F)(F)F)c2c(=O)[nH]1)c1ccccc1,·,·,-0.2,2%,1,
CCN(CC)C(=S)SCC(=O)Nc1cccc(C(F)(F)F)c1,-45,·,-0.8,5%,-6,
O=C(COc1ccc(F)cc1)Nc1nccs1,-43,-3,-1.2,10%,-1,Arbovirus anti repeat=6
CC(C)N(C(=O)CSc1n[nH]c(=O)n1CCc1ccccc1)C(C)C,·,·,-2.5,·,-4,
CCOC(=O)C(NC(=O)Nc1ncccn1)(Oc1ccccc1)C(F)(F)F (stereo not given),-43,28,-0.3,-12%,3,
CCOC(=O)c1nc(C)n(-c2ccc(Cl)cc2Cl)n1,-20,2,-0.3,-14%,-3,
CC(=O)N1CC(C)Sc2ccc(S(=O)(=O)NCCc3ccc(C)cc3)cc21 (stereo not given),·,·,3.8,·,-4,
O=C(Nc1ccccc1N1CCOCC1)c1ccc2c(c1)C(=O)N(Cc1ccncc1)C2=O,-37,1,6.5,-14%,0,
COc1ccc(NC(=O)c2ccc([N+](=O)[O-])cc2[N+](=O)[O-])c(OC)c1,·,-1,-6.6,3%,9,
COc1ccc(NS(=O)(=O)c2ccc(C)c(C(=O)N(C)Cc3ccc(C)cc3)c2)cc1,·,·,3.0,·,-13,
Nn1c(COc2ccc(Cl)cc2)n[nH]c1=S,·,-2,1.6,-7%,2,
CCn1nc(C)c(CN2CCN(Cc3ccsc3)C(CCO)C2)c1C (stereo not given),·,-4,-2.8,-9%,3,
COc1cc(NC(=O)c2cc(C(C)C)on2)cc(OC)c1OC,-48,5,1.3,8%,11,Arbovirus anti repeat=-6
Cc1nc(N)sc1-c1csc(Nc2ncccn2)n1,·,-4,-0.3,-6%,·,
NS(=O)(=O)c1ccc(CCNC(=O)/C=C/c2ccccc2[N+](=O)[O-])cc1,·,-2,-3.3,-7%,-3,
CC1C2CC(C/C2=N/NC(=O)c2cccs2)C1(C)C (stereo not given),·,-6,1.2,-1%,45,
O=C(/C=C/Nc1cccc([N+](=O)[O-])c1)c1cccs1,-22,-2,2.3,-5%,3,
COc1ccccc1NC(=O)Cn1c(=O)n(CCc2c[nH]c3ccccc23)c(=O)c2cccnc21,-32,-1,1.1,·,4,
N/C(=N\OC(=O)Cc1cccc2ccccc12)c1ccccn1,-29,-24,0.0,8%,58,
COc1ccccc1/C=N/NC(=O)c1ccccc1NS(=O)(=O)c1ccc(C)cc1,-23,-10,-9.1,0%,3,
Cc1ccccc1C1=N/C(=C/c2cccnc2)C(=O)O1,·,4,-1.1,-1%,1,
O=C(/C=C/c1ccco1)NC1CCCC1,·,2,-0.9,-8%,-4,
CN(C)C(=O)CN1c2cccc3cccc(c23)S1(=O)=O,·,·,1.8,·,1,
C=CCSc1nnc(Cc2cc(=O)[nH]c(=O)[nH]2)n1-c1cc(C)ccc1C,-18,4,-1.2,-10%,-4,
CS(=O)(=O)N1CCN(c2ccc(NC(=S)NC(=O)c3ccc4c(c3)OCO4)cc2)CC1,·,-3,-1.9,-3%,-3,
O=C(Nc1ccccc1N1CCOCC1)C1CCN(S(=O)(=O)c2ccc(Cl)cc2)CC1,·,·,-10,1%,-2,
COC(=O)c1ccc(/C=N/NC(=O)c2cccc(F)c2)cc1,-23,-7,0.5,0%,80,
COCCCn1c(SCc2nc3ccccc3c(=O)[nH]2)nc2ccccc2c1=O,-1,-3,0.6,-8%,4,
CCN(CC(=O)NC(=O)NC1CCCCC1)Cc1nc2ccccc2c(=O)[nH]1,13,-3,6.6,6%,56,
O=C(CNC(=O)c1cccs1)NCCN1CCN(Cc2ccccc2)CC1,-10,-5,0.7,-1%,11,
NC(=O)NC(=O)COC(=O)c1ccc(OC(F)(F)F)cc1,·,3,-3.1,3%,-2,
O=C1CCN(CCCc2ccccc2)CCN1CCO,·,·,-0.5,·,2,
Cc1ccc(Cl)cc1-c1ccc(C=Nc2ccc(N3CCOCC3)cc2)o1,-17,-24,-1.3,10%,4,
C=CCn1cc(C(=O)NCc2ccco2)c(=O)c2cc(S(=O)(=O)N3CCCCCC3)ccc21,-15,-19,6.2,-2%,-11,
CCC/C(=N/NC(=O)c1cccc(Cl)c1)c1ccccc1,-20,-16,5.5,3%,5,
COc1cccc(/C=N/n2c(-c3cccs3)n[nH]c2=S)c1,-18,15,-0.4,7%,5,
COc1ccccc1N(Cc1cc(=O)[nH]c2ccccc12)C(=O)c1ccc([N+](=O)[O-])cc1,·,·,-5.6,12%,-3,
O=C(c1cc(COc2cccc(C(F)(F)F)c2)on1)N1CCc2ccccc2C1,·,·,9.2,·,65,
CCOC(=O)N1CCN(C(=O)CN(Cc2ccc(Cl)cc2)S(=O)(=O)c2ccc(C)cc2)CC1,-14,-5,2.9,-1%,-6,
Cn1c(N)c(C(=O)CCl)c(=O)n(C)c1=O,-7,1,0.1,-6%,2,
Cn1cccc1/C=C1/C(=O)NC(=O)N(C(C)(C)C)C1=O,·,·,0.0,-3%,1,
CN1/C(=C\C(=O)COC(=O)c2ccco2)C(C)(C)c2ccccc21,·,3,-1.1,5%,2,
CCN(CC)CCN1C(=O)C(=O)/C(=C(/O)c2ccc(Cl)cc2)C1c1ccncc1 (stereo not given),-7,-6,·,1%,·,
COc1cc(C(=O)NCC(=O)N/N=C(/C)c2ccc3c(c2)CCCC3)cc(OC)c1OC,·,-12,0.4,-4%,1,
N#C/C(=C\c1cn(Cc2cccc(F)c2)c2ccccc12)C(=O)NCc1ccco1,-21,4,-1.6,10%,5,
COc1cccc(/C=N/n2c(-c3ccco3)nc3ccccc3c2=O)c1OC,1,-1,2.0,1%,0,
S=C(NCc1ccccc1)Nc1cccc2ccccc12,·,·,2.2,·,-4,

# Later entries
SMILES,YopH inh,Arbovirus anti,RecA splice inh,Mtb growth,Mtb bLac sens,others
Cc1cc(OC(=O)N2CCCCC2)cc(C)c1Cl,-13,-3,3.3,19%,6,
Cc1cc(Cl)ccc1NC(=S)NCc1ccco1,-26,0,1.1,-3%,4,
CC(=O)COc1nc2c(c(-c3ccco3)c1C#N)CCc1ccccc1-2,·,·,-0.9,-1%,12,
O=C(NC1CCCCCC1)C(=S)NC1CCCCC1,·,0,-1.3,0%,-7,
O=C(O)c1cc(-c2cccs2)nn1-c1ccccc1,·,7,0.9,-7%,-12,
Cc1ccc(-c2ccccc2NC(=O)C2C3C=CC(C3)C2C(=O)O)o1 (stereo not given),-24,2,0.6,-3%,3,
O=C(c1ccccn1)N1CCN(S(=O)(=O)c2ccc3ccccc3c2)CC1,·,-3,0.8,4%,-2,
Cc1ccccc1NC(=S)NCCc1ccccc1,-21,5,2.0,6%,10,
O=P(O)(O)C(O)C(F)(F)C(F)(F)C(F)(F)C(F)F (stereo not given),16,0,0.0,-1%,4,
O=C1CCCN1CCCNS(=O)(=O)c1ccc(F)cc1F,·,·,0.3,-12%,2,
N#Cc1ccc2nc3c(nc2c1)CCCC3,·,·,-0.5,·,80,
C=CCN(CC=C)Cc1ccc(C(=O)OC)o1,1,11,0.1,2%,34,
COc1ccccc1OCC(=O)NCCS(=O)(=O)N1CCN(c2ccccc2)CC1,·,·,-1.7,·,-5,
Cc1ccn2cc(C(=O)NC3CCN(Cc4ccccc4)CC3)nc2c1,-22,-3,1.8,-4%,-4,
O=S(=O)(c1ccccc1)C1CON(Cc2ccccc2)C1c1ccccc1 (stereo not given),·,1,5.5,4%,-7,
CC(=N[C@@H]1CCCC[C@H]1N=C(C)c1ccccc1O)c1ccccc1O,-9,5,-0.3,-2%,-5,
COc1ccc(NC(=O)CNC(=O)c2nn(-c3ccc(OC)c(OC)c3)c(=O)c3ccccc23)c(OC)c1,·,·,-10,·,9,
Cn1c(SCC(=O)Nc2ccc(NC(=O)c3ccccc3F)cc2)nnc1-c1ccncc1,·,·,9.8,·,-8,
COC(C[C@@H]1O[C@@H]1[C@H](O)[C@H](C)OCc1ccccc1)OC,·,·,-0.1,8%,·,
CCOC(=O)c1cc(-c2csc(Nc3c(C)cc(C)cc3C)n2)on1,·,·,-0.6,?,100,

# Next part; the last 2 above are carried over.
SMILES,YopH inh,Arbovirus anti,RecA splice inh,Mtb growth,Mtb bLac sens,others
COC(C[C@@H]1O[C@@H]1[C@H](O)[C@H](C)OCc1ccccc1)OC,·,·,-0.1,8%,·,
CCOC(=O)c1cc(-c2csc(Nc3c(C)cc(C)cc3C)n2)on1,·,·,-0.6,?,100,
COCCNC(=O)C(c1cccs1)N(C(=O)Cn1nnc2ccccc21)c1ccc(OC)cc1 (stereo not given),-10,9,-0.7,-6%,-15,
COc1ccc(CCN2C(=S)N(C)C(=O)C2CC(=O)Nc2ccc(F)cc2)cc1 (stereo not given),·,·,6.4,-8%,-2,
O=C1C=C(NCc2ccco2)CC(c2ccc(Cl)cc2)C1 (stereo not given),-6,3,2.1,8%,7,Arbovirus anti repeat=-5
COc1ccc(OCCC(=O)N2CCOCC2)cc1,·,-2,0.2,0%,-2,
Cc1cc(Nc2ncc(Cl)cc2Cl)n(-c2ccccn2)n1,-38,-2,2.6,9%,·,Arbovirus anti repeat=4
COC(=O)CSc1[nH]c2ccc(Br)cc2c1[N+](=O)[O-],·,3,-0.9,?,100,
O=C(c1ccc(CNS(=O)(=O)c2ccc(Br)cc2)cc1)N1CCCCC1,·,·,-1.8,·,19,
CCOc1ccc(OCC)c(NC(=O)CCSCCc2ccccn2)c1,·,4,-0.5,3%,-1,
Cc1csc(NC(=O)c2ccc(COc3ccccc3)o2)n1,·,·,-1.9,·,1,
CN(C)c1nc(N)c([N+](=O)[O-])c(NCCO)n1,-35,8,-5.8,-5%,7,
N/C(=N\OC(=O)CCC1CCCC1)c1cccc([N+](=O)[O-])c1,-28,7,-4.4,64%,94,
CC(C)N(C(=O)COC(=O)c1ccccc1C(=O)N1CCN(c2ccc(F)cc2)CC1)C(C)C,-8,-6,·,-5%,15,
CN1C(=O)Cc2cc(S(=O)(=O)N3CCN(c4ccccc4F)CC3)ccc21,·,·,-2.1,·,4,
COc1ccc(C(=O)NC2CC2)cc1OC1CCN(Cc2ccc(F)c(F)c2)CC1,·,·,-6.1,·,-5,
COc1ccccc1N1CCN(C(=O)C2CCCN(S(=O)(=O)c3ccc4c(c3)CCCN4C(C)=O)C2)CC1 (stereo not given),·,·,3.2,·,-7,
COc1ccc(N(CC(=O)NCc2ccc(Cl)cc2)S(=O)(=O)c2c(C)nn(C)c2C)cc1,·,·,-2.0,·,0,
COc1ccccc1OCCSc1nc(C)c(Cc2ccccc2)c(=O)[nH]1,·,·,-3.9,-4%,-1,
CC1CC(CC(=O)NNc2nc(-c3ccccc3)cs2)C(=O)O1 (stereo not given),·,-21,-3.2,?,76,
COc1ccc(S(=O)(=O)NC(C)C(=O)Nc2cccc(C(C)=O)c2)cc1 (stereo not given),-6,4,-0.1,2%,-7,
c1ccc([C@H]2CC3C[C@@H](c4ccccc4)N2O3)cc1,-8,5,1.0,10%,4,
O=S(=O)(NCc1ccccc1F)c1cccc(S(=O)(=O)N2CCOCC2)c1,·,-2,0.1,0%,0,
COC(=O)C1(CC2CC(c3ccccc3)=NO2)CCN(C(=O)OC(C)(C)C)CC1 (stereo not given),·,·,12,-14%,-8,
COc1ccc(NC(=O)CN(C)CC(=O)Nc2cccc(C(F)(F)F)c2)cc1,·,7,1.6,1%,-5,
Cc1cc(F)ccc1S(=O)(=O)N1CCCOC1CNC(=O)C(=O)NCC(C)C (stereo not given),·,·,2.8,·,-17,
COC(=O)c1ccnc(/C=N/O)c1,-27,-6,2.0,-8%,-1,
COc1ccc(C(=O)C(CN2CCCC2)c2ccccc2)cc1 (stereo not given),-1,-46,-0.7,9%,100,
CCOc1cc(C)nc(N2CCC(C(=O)Nc3ccccc3OCC)CC2)n1,-31,-1,2.1,-3%,-2,

# Random excerpt: 5 entries already listed
SMILES,YopH inh,Arbovirus anti,RecA splice inh,Mtb growth,Mtb bLac sens,others
Cc1cc(F)ccc1S(=O)(=O)N1CCCOC1CNC(=O)C(=O)NCC(C)C (stereo not given),·,·,2.8,·,-17,
COC(=O)c1ccnc(/C=N/O)c1,-27,-6,2.0,-8%,-1,
CCOc1cc(C)nc(N2CCC(C(=O)Nc3ccccc3OCC)CC2)n1,-31,-1,2.1,-3%,-2,
COC(=O)C1(CC2CC(c3ccccc3)=NO2)CCN(C(=O)OC(C)(C)C)CC1 (stereo not given),·,·,12,-14%,-8,
O=S(=O)(NCc1ccccc1F)c1cccc(S(=O)(=O)N2CCOCC2)c1,·,-2,0.1,0%,0,
